supercomplex = modulators of mitochondrial supercomplex assembly, cell-based, luminescence, Hoechst nuclei count (AID 1645838) | Cells, luminescence/Hoechst cell count ratio, supercomplex reporter; stronger effect = higher value | z-score at 11 µM unless noted | 2,000 tested, 5% active;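 active = mean z-score of two plates above 1.96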;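 note: control cybrid cells; higher means more mitochondrial supercomplex formation; U2OS-based cells read after two days; 0 = mean of sample wells on the plate; doses worked out from stocks diluted about 900-fold with the highest of each compound shown; many of its hits are not listed in these tables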
supercomplex cell count = further read-out of supercomplex, marked with its call; cell count; measured here: cell number, Hoechst nuclei count;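 nuclei per well as mean of two plates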
The depositor's hits bear a star; i = inactive; . = not tested or not shown. Not all compounds are listed (hit frequency here may not be typical).

SMILES	supercomplex	supercomplex cell count
Cc1cc(C(=O)CN2CCCC2)c(C)n1-c1ccc(F)cc1	-0.36	5764
COc1ccc(C(=O)c2c(C)n(CCN3CCOCC3)c3cc(I)ccc23)cc1	-0.12	6430
COC1=CC(C)=CC(C)C(O)C(C)CC(C)=CC=CC(OC)[C@H](C(C)C(O)C(C)[C@@]2(O)CC(O)C(C)C(C(C)C)O2)OC1=O (some centres undefined)	i	.
N#CC(=Cc1ccc(O)cc1)C(=O)O	0.3	6566
COc1ccc(-n2nc(C(F)(F)F)cc2-c2ccc(Cl)cc2)cc1	-0.46	6797
c1ccc2c(c1)cc1ccc3cccc4ccc2c1c34	0.12	4428
C1CCC(NC2CCCCC2)CC1	-0.044	6902
c1cc2ccc3cccc4ccc(c1)c2c34	-0.21	4842
CC1CN(Cc2ccc(F)cc2)CCN1C(=O)COc1ccc(Cl)cc1NC(N)=O (centres undefined)	0.87	5984
Cc1[nH]nc2ccc(-c3cncc(OCC(N)Cc4c[nH]c5ccccc45)c3)cc12 (centres undefined)	i	.
CN(C(=O)C(c1ccccc1)c1ccccc1)C(CN1CCC(O)C1)c1ccccc1 (centres undefined)	0.36	4346
Cc1c(C(=O)Nc2cccc(C(F)(F)F)c2)cc(-c2ccccc2)n1CCCN1CCOCC1	-0.41	5420

Complete entries from above. Order of values: supercomplex	supercomplex cell count
`COc1ccc(-n2nc(C(F)(F)F)cc2-c2ccc(Cl)cc2)cc1` reads -0.46	6797
`N#CC(=Cc1ccc(O)cc1)C(=O)O` reads 0.3	6566
`c1ccc2c(c1)cc1ccc3cccc4ccc2c1c34` reads 0.12	4428

A few values from the results shown.
Value for `c1ccc2c(c1)cc1ccc3cccc4ccc2c1c34` in supercomplex cell count: 4428
Value for `CN(C(=O)C(c1ccccc1)c1ccccc1)C(CN1CCC(O)C1)c1ccccc1` (centres undefined) in supercomplex: 0.36
Value for `c1cc2ccc3cccc4ccc(c1)c2c34` in supercomplex: -0.21
